# MLL AF4-AF9 inh: inhibitors of human MLL-AF4/AF9 interaction; P42568; AlphaScreen, biotin-AF4 peptide binding to FLAG-AF9; inhibition, % at 10 µM; 350,000 compounds, 0.47% hits;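 active means every replicate reaching a set inhibition limit, whatever the replicate mean, cut at about 25% in these data; inconclusive means mean inhibition reaches that limit but some replicates miss it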;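 further: 0% = plate neutral control median and 100% = total signal loss; the record names both 10 and 1 µM as test concentration; the first replicate is given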
# Target sequence (P42568 whole entry, looked up): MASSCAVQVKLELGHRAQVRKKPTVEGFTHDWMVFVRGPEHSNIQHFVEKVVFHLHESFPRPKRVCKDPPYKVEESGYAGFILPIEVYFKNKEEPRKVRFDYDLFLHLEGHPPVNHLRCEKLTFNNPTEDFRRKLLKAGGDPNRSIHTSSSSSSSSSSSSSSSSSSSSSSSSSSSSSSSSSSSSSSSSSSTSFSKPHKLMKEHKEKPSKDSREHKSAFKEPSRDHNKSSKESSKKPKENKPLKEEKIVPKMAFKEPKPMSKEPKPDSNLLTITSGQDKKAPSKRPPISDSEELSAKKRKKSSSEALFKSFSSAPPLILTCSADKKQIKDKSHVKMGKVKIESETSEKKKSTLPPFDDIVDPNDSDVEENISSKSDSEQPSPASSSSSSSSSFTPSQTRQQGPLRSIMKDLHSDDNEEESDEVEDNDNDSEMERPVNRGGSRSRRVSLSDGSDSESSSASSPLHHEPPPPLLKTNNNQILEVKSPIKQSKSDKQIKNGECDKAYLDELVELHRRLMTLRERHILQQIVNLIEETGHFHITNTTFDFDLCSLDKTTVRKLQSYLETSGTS
# Vif A3G: inhibitors of Vif binding to APOBEC3G peptide, primary screen, biochemical, TR-FRET, GST-Vif 1-94, biotin-A3G peptide, dose response retest (AID 1117319) | TR-FRET GST-Vif / biotin-A3G peptide binding; higher % means a stronger effect; test concentration not given here; strong numbers were not always called active | inhibition, %; hits with a dose series show IC50 in µM | 260,000 compounds, 0.57% hits;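 active means above the screen mean plus three standard deviations and confirmed in dose response; inconclusive means results disagree or hit not tested in dose response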;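 further: Vif residues 1-94 fused to GST binding biotinylated APOBEC3G peptide 110-148; 0% = full assay without inhibitor and 100% = GST in place of GST-Vif; retest series ran down from 100 µM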
# T cruzi inh: blocks replication of Trypanosoma cruzi; 300,000 compounds, 1.4% hits; T. cruzi beta-gal in NIH3T3, luminescence, 90 h; inhibition, % (no concentration beside the values);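 active means mean inhibition across valid replicates above about 55%, limit read from the data; inconclusive means mean below that limit but half or more replicates reach it; inactive means mean below it, under half of replicates reach it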;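 further: signal also drops with host cell toxicity which is not excluded here; 0% = plate median of DMSO wells and 100% = zero luminescence signal; higher percent means less beta-gal luminescence so fewer parasites; stock transfer was 50 nL into about 50 µL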
# RanGTP-Imp inh: inhibitors of RanGTP-importin-beta interaction, primary screen, biochemical, FRET, CFP-Ran, YFP-importin-beta, homogeneous; 300,000 compounds, 1.1% hits; inhibition, % (test concentration not listed); cell-free CFP-Ran/YFP-importin-beta FRET ratio;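 active means most replicates above 15%; inconclusive means exactly half above 15%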;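 further: 0% = DMSO wells and 100% = Ran loaded with GDP instead of GTP; wells of about 40 µL received 100 nL stock; the first replicate is given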
# Beta cell apopt: beta cell apoptosis inhibition | AID 435005 | protection from apoptosis, % (test concentration not listed) | INS-1E cytokine-induced death, ATP luminescence, 48 h; percent of positive-control rescue, neutral wells zero | 300,000 compounds, 0.8% hits;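 active means all replicates at 75% or more, or half of them and the mean; inconclusive means half reach 75% but not the mean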;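 further: 0% = cytokine-treated negative control wells and 100% = positive control rescue; higher means more ATP so stronger rescue from cytokine killing; wells of about 40 µL received 100 nL stock; the first replicate is given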
# Calb FLC: C. albicans growth modulation with fluconazole. C. albicans CaCi-2 (fluconazole-resistant clinical isolate) + fluconazole, Alamar Blue growth, 48 h. growth inhibition, % (test concentration not listed). 300,000 compounds, 0.57% hits;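 active means most replicates above 75%; inconclusive means exactly half above 75%; inactive means most below 75%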;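 further: all wells also contain fluconazole at 8 µg/ml as a sub-toxic cotreatment; 0% = median of DMSO wells and 100% = median of geldanamycin control wells; wells of about 8 µL received 7.5 nL stock; the first replicate is given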
# rRNA inh HTS: inhibitors of bacterial rRNA selective over humanized ribosomes; E. coli WT GFP vs humanized-ribosome RFP mutants, fluorescence, 24 h; hits give low values; DMSO median 0, no signal -100; GFP signal change (wild-type ribosome), % (no concentration beside the values); 350,000 compounds, 1.6% hits;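 active means significant combined selectivity score with lowered wild-type GFP, culture density cut under 30%, mutant RFP and density less affected; inactive means any of these conditions unmet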; further: one replicate is shown; some compounds called inactive have numbers as strong as hits
# A1 inh: inhibitors of the anti-apoptotic protein A1, read as caspase activation. MEF A1-2A-BIM cells, Caspase-Glo 3/7 luminescence, 3 h; percent of clofoctol response, vehicle zero. caspase activation, % (no concentration beside the values). 330,000 compounds, 0.066% hits;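 active means over half of replicate activation scores above 10%, or exactly half above 10 with the replicate mean above 10; inconclusive means replicate mean below 10 yet half the replicates above 10; inactive means over half of replicates below 10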;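 further: wells of about 30 µL received 50 nL stock; many hits fall short of the cut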
# rRNA inh HTS OD600: second read-out of rRNA inh HTS, no call of its own (marks repeat the call); OD600 change, %; measured here: OD600 growth;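 optical density of the mix in the first replicate; 0 = DMSO median and -100 = no signal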
# rRNA inh HTS RFP: also measured in rRNA inh HTS; calls as there; RFP signal change, %; measured here: RFP humanized mutant strains;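 first replicate; 0 = DMSO median and -100 = no signal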
# * hit, by the source's call; ? = inconclusive; nt = not tested or not shown; & = joins results of further samples. An excerpt, so the mix of outcomes need not match the whole.
SMILES,MLL AF4-AF9 inh,Vif A3G,T cruzi inh,RanGTP-Imp inh,Beta cell apopt,Calb FLC,rRNA inh HTS,rRNA inh HTS OD600,rRNA inh HTS RFP,A1 inh
COc1ccc(CCNC(=O)CNCC(c2ccccc2)N(C)C)cc1OC (stereo unspecified),1.5,-4%,-1,?,-1,12,14,11,1.2,0.1
CCc1c(C)sc2nc3c(C(=O)N4CCOCC4)cc(C(=O)c4ccccc4O)cn3c(=O)c12,21,-9%,7,2.2,17,?,19,11,2.3,0.5
CCOC(=O)N1CCC(NC(=O)C2CCCN(Cc3nc(-c4cccc(Cl)c4)oc3C)C2)CC1 (stereo unspecified),-8.7,-3%,52,-1.4,78*,-5,-11,-3,0.1,-0.1
COc1ccccc1C(=O)O/N=C(/c1ccncc1)c1ccc([N+](=O)[O-])cc1,12,-8%,-26,-2.6,-2,-8,2,-6,-3.0,-1.3
O=C(NCCNc1ccc([N+](=O)[O-])cc1)c1cccc2c(Br)cccc12,-5.2,21%,6,-1.0,-4,0,-29,-30,-6.0,0.9
O=C(Cn1cc(SCc2ccc(Cl)cc2)c2ccccc21)N1CCOCC1,nt,nt,-16,4.3,-2,?,nt,nt,nt,0.1
Cc1cc(NC(=O)Nc2cccc3ccccc23)no1,nt,-4%&-2%,1,0.2,-7,0,nt,nt,nt,0.2
COc1cc(C(=O)Sc2ccc(C)cc2)cc(OC)c1OC,nt,-3%,18,-0.2,-17,-8,nt,nt,nt,0.1
CCOC(Cn1c(SCc2cc(C(C)=O)ccc2OC)nc2ccccc2c1=O)OCC,3.1,11%,-5,6.7,-7,0,22,10,-3.4,2.4
NC(=O)CCn1c(C(=O)c2cccc([N+](=O)[O-])c2)c2ccccc2[n+]1[O-],-2.5,nt,0,?,-10,5,7,7,-2.6,0.0
O=C1CC2CS(=O)(=O)CC2N1c1ccc(Cl)cc1Cl (stereo unspecified),nt,20%,-8,-3.2,-1,3,nt,nt,nt,-0.4
Cc1cccc(CSc2nnc(-c3cccs3)n2Cc2ccco2)c1,nt,13%,12,7.9,-6,47,nt,nt,nt,-0.1
CC(=O)S[C@@H]1CC2=CC(=O)CC[C@]2(C)[C@H]2CC[C@@]3(C)[C@@H](CC[C@@]34CCC(=O)O4)[C@H]12,7.2,nt,-17,5.2,-3,nt,nt,nt,nt,0.6
COC(=O)C1C(=O)c2c(n[nH]c2C)CC1(C)C (stereo unspecified),nt,2%,-6,7.1,1,-7,nt,nt,nt,0.1
C/C(=N\c1nc2ccccc2n1C)c1cc(Cl)ccc1O,nt,7%,15,-2.1,-12,-24,nt,nt,nt,0.4
Cc1ccc(CN(c2ccc(C(=O)N3CCCC3)cc2)S(C)(=O)=O)cc1,nt,-10%,-11,-1.8,-18,-1,nt,nt,nt,-1.0
CC(C)[C@H](NC(=O)[C@@H]1Cc2ccccc2CN1)C(=O)NC1CCCCC1,-6.1,7%,-38,1.4,-2,-6,4,6,-1.2,0.1
CC1(C)CC(=O)C2=C(C1)OC1=C(C(=O)CC(C)(C)C1)C2c1ccc(O)cc1O,nt,?,5,93*,102*,-2,nt,nt,nt,2.2
Cc1ccc(CSCCNS(=O)(=O)c2ccc([N+](=O)[O-])cc2)cc1,-0.9,-2%,68*,2.6,2,7,-11,-23,0.5,0.8
O=C(CNC(=O)c1cc(S(=O)(=O)N2CCCCC2)ccc1N1CCOCC1)Nc1ccc(F)c(F)c1,-2.8,-9%,0,-0.5,nt,-1,16,16,5.3,-0.7
Cc1ccccc1-n1c(SCC(=O)N/N=C/C=C/c2ccccc2[N+](=O)[O-])nc2ccccc2c1=O,-26,3%,1,5.6,16,18,11,8,4.0,-0.8
O=C(CCNC(=O)c1ccc(Br)cc1)Nc1cc(Cl)ccc1-n1cncn1,5.2,-1%,3,0.6,nt,2,-1,0,0.4,0.3
COc1ccc(NC(=O)CSc2nnc(-c3ccoc3C)n2CCc2ccccc2)cc1,nt,-7%,-2,-1.5,5,2,nt,nt,nt,1.3
CCCNC(=O)/C(C#N)=C1\N=C(NC(=O)c2cccs2)c2ccccc21,-1.6,nt,-3,-0.9,-4,2,-4,-13,1.0,0.8
CC(C)(C)NS(=O)(=O)c1ccc(-c2csnn2)s1,nt,1%,-8,9.1,-5,-7,nt,nt,nt,0.2
Cc1ccc(NC(=O)CSCC(=O)Nc2ccc(N3CCOCC3)c(Cl)c2)cc1,nt,-12%,-7,-2.1,-6,-2,nt,nt,nt,0.0
COc1ccc(-c2nc3ccccn3c2C=O)cc1,nt,nt,-3,1.3,7,4,nt,nt,nt,-6.1
Cc1ccc2nc(SCC(=O)Nc3cccc([N+](=O)[O-])c3)[nH]c2c1,nt,2%,1,0.7,1,-5,nt,nt,nt,-0.1
O=C(c1cc2ccccc2o1)N1CCN(Cc2ccc3c(c2)OCO3)CC1,-1.5,nt,17,-1.2,-1,12,-25,-21,0.7,0.2
Cc1ccc2c(c1)C(c1ccc(O)cc1)(c1ccc(O)cc1)C(=O)N2C,-3.0,-6%,-6,-3.1,-5,3,2,-1,0.7,0.2
COC(=O)C(Cc1c[nH]c2ccccc12)NC(=O)C(=O)c1c[nH]c2ccccc12 (stereo unspecified),10,nt,-22,2.5,nt,-1,-30,-35,-0.9,-1.5
NC(=O)c1cccn1-c1ncc(C(F)(F)F)cc1Cl,-0.8,-6%,-4,-0.3,-2,5,8,8,-2.8,0.9
COC(=O)c1cccc(N/C=C(\[N+](=O)[O-])S(=O)(=O)c2ccccc2)c1,-0.1,-7%,32,7.7,0,-2,2,1,-0.4,1.3
CC(C)(C)NC(=O)C1CCCN(S(=O)(=O)c2cccc3cccnc23)C1 (stereo unspecified),-1.6,-2%,-3,-0.7,-7,-9,4,13,-0.7,1.0
CCOC(=O)C1=C(C)N=c2s/c(=C/c3ccc(OCC(=O)O)cc3)c(=O)n2C1c1ccc(F)cc1 (stereo unspecified),11,8%,1,5.2,6,15,16,10,0.1,0.2
COC(=O)[C@@H](N)Cc1ccc(O)cc1,nt,1%,-11,-0.3,-6,10,nt,nt,nt,-0.1
CCn1ncc(/C=C/C(=O)C2CC2)c1C,nt,-5%,?,0.4,-2,10,nt,nt,nt,0.4
Cc1cc(=O)oc2cc(NC(=O)c3ccccc3OC(F)F)ccc12,-2.6,nt,-3,-1.8,-7,-8,16,13,1.6,-1.7
O=S(=O)(Nc1ccc(N2CCOCC2)cc1)c1ccc2ccccc2c1,nt,25%,8,-0.4,-11,-2,nt,nt,nt,0.4
CCCCN(C(=O)Cn1ncc(Cl)c(Cl)c1=O)c1c(N)n(CC(C)C)c(=O)[nH]c1=O,nt,31%,-43,2.0,17,7,6,7,0.0,1.0
CCN(CC)c1ccc(NC(=O)CN2CCN(CC(=O)Nc3ccccc3F)CC2)cc1,nt,2%,-13,-1.9,9,-1,nt,nt,nt,-0.7
O=C(NCc1cccnc1)c1cc(C(=O)C2CC2)c[nH]1,-0.4,8%,-14,1.5,0,-9,4,3,-0.6,-0.1
O=C(Nc1ccc2c(c1)OCO2)c1ccncc1,nt,5%,14,8.6,3,5,nt,nt,nt,-0.2
c1ccc(C2=NNC(=NC3CC3)SC2)cc1,nt,3%,-3,0.3,26,-6,nt,nt,nt,0.0
Cc1ccc(C)c(OCCC(=O)OCC(=O)NC(=O)NC2CCCC2)c1,-16,3%,-5,-2.2,-6,0,-6,-7,1.1,0.7
COc1cccc(C2CC(c3ccc(C)cc3)=NN2C(=O)c2ccccc2F)c1OC (stereo unspecified),5.3,-7%,16,0.3,5,4,3,8,-3.9,0.0
C=CC[C@@H]1Cc2c(Br)ccc(Br)c2[C@@H](CC=C)N1,nt,-1%,-19,-5.1,0,-11,nt,nt,nt,0.7
CCOc1ccc2nc(NC(=O)CSc3ccc(Cl)cc3)sc2c1,nt,21%,54,0.2,nt,25,nt,nt,nt,-1.2
O=C1c2cccc3cccc(c23)C(=O)N1c1ccccn1,1.8,3%,-14,nt,-13,9,1,-3,-0.8,0.6
CCOC(=O)C1=C(C)N=c2s/c(=C/c3ccc(OCC(=O)O)cc3)c(=O)n2C1c1ccc(OC)cc1OC (stereo unspecified),0.8,1%,7,-6.6,nt,-10,-3,4,4.0,-0.1
# Further results follow:
SMILES,MLL AF4-AF9 inh,Vif A3G,T cruzi inh,RanGTP-Imp inh,Beta cell apopt,Calb FLC,rRNA inh HTS,rRNA inh HTS OD600,rRNA inh HTS RFP,A1 inh
CCOC(=O)N/N=C\c1ccc(OC/C=C/c2ccccc2)c(OC)c1,3.6,nt,8,1.8,0,?,-17,-28,-1.9,0.2
Cc1cc(C)c(-c2cc(C)nc3ncnn23)c(C)c1,3.2,-7%,1,1.6,2,1,14,18,-0.9,0.1
O=C(NCCCn1ccnc1)C1CC2CCC1C2 (stereo unspecified),nt,1%,-11,1.5,-5,9,nt,nt,nt,-0.5
Cc1cnc(NC(=O)CSc2nnc(N)s2)s1,-0.2,6%,-18,-3.4,-4,4,11,14,-1.7,0.4
Cc1ccc(-c2nn(-c3ccccc3)cc2CN(C)C(=O)CCC(=O)O)cc1C,-3.4,5%,26,-3.4,1,12,4,-3,-2.2,-0.5
O=c1[nH]nc(Cc2ccc(-c3cccc(Cl)c3)o2)c2ccccc12,nt,-3%,24,1.0,3,2,nt,nt,nt,0.3
COCCNC(=O)CN(C(=O)CCC(=O)Nc1ccccn1)c1cc(C)ccc1C,26*,nt,-8,1.2,-1,-18,3,11,1.3,0.1

# Gathered by group, the compounds so far with fluorine (6)
SMILES,MLL AF4-AF9 inh,Vif A3G,T cruzi inh,RanGTP-Imp inh,Beta cell apopt,Calb FLC,rRNA inh HTS,rRNA inh HTS OD600,rRNA inh HTS RFP,A1 inh
O=C(CNC(=O)c1cc(S(=O)(=O)N2CCCCC2)ccc1N1CCOCC1)Nc1ccc(F)c(F)c1,-2.8,-9%,0,-0.5,nt,-1,16,16,5.3,-0.7
NC(=O)c1cccn1-c1ncc(C(F)(F)F)cc1Cl,-0.8,-6%,-4,-0.3,-2,5,8,8,-2.8,0.9
CCOC(=O)C1=C(C)N=c2s/c(=C/c3ccc(OCC(=O)O)cc3)c(=O)n2C1c1ccc(F)cc1 (stereo unspecified),11,8%,1,5.2,6,15,16,10,0.1,0.2
Cc1cc(=O)oc2cc(NC(=O)c3ccccc3OC(F)F)ccc12,-2.6,nt,-3,-1.8,-7,-8,16,13,1.6,-1.7
CCN(CC)c1ccc(NC(=O)CN2CCN(CC(=O)Nc3ccccc3F)CC2)cc1,nt,2%,-13,-1.9,9,-1,nt,nt,nt,-0.7
COc1cccc(C2CC(c3ccc(C)cc3)=NN2C(=O)c2ccccc2F)c1OC (stereo unspecified),5.3,-7%,16,0.3,5,4,3,8,-3.9,0.0

# Compound activity: PubChem, several laboratories
